Vaccinia mCherry: qHTS for Stage-Specific Inhibitors of Vaccinia Orthopoxvirus: mCherry Reporter Primary qHTS; Vaccinia virus mCherry reporter infection, fluorescence; about a quarter of the inactives have no number; Potency, µM (doses to about 36.5 µM), for the others: at the highest dose activity change, negative = inhibition, most hits filed as inhibitors; 310,000 compounds, 0.63% hits; AID 720579, 2013; active = well fitted inhibition curve with a large enough effect; inconclusive = small, poorly fitted or top-dose-only effect; inactive = no such curve, though single readings can be large or run the other way; tested in A549 cells; also: nearly all actives have a fitted effect of over 35% in size; inactives centre near -10
VACV Venus inh: qHTS for Stage-Specific Inhibitors of Vaccinia Orthopoxvirus: Venus Reporter Primary qHTS | 330,000 compounds, 0.46% hits | Vaccinia virus Venus reporter expression, fluorescence | Potency, µM (top dose mostly 36.5 µM), without a hit: top-dose activity change, negative = inhibition, hits mostly inhibitors; active means well fitted inhibition curve with a large enough effect; inconclusive means small, poorly fitted or top-dose-only effect; inactive means no such curve, though single readings can be large or run the other way; tested in A549 cells; also: nearly all actives have a fitted effect of over 30% in size; inactives centre near -10
* = called active by the depositor; i = inactive; ? = inconclusive; / = not tested or not shown; & = joins results of further samples; [ ] = dose if it differs, or a comment. % is scaled to controls: 0 for no effect and ±100 for the full control effect; potency is read from the fitted curve at half-maximal effect.

SMILES | Vaccinia mCherry | VACV Venus inh
N#Cc1ccccc1NC(=O)C(=O)NCC(c1cccnc1)N1CCc2ccccc2C1 (centres undefined) | -6.2% | -4.2%
Cc1ccc(NC(=O)COC(=O)C2CC2)c(Br)c1 | -14.3% | 1.4%
O=C(COc1ccc(Cl)cc1)NCCNC(=O)c1cnccn1 | 4.9% | -13.0%
Cc1nc(N2CCC(C)CC2)c2c(C)c(C(=O)Nc3cccc(C(F)(F)F)c3)sc2n1 | i | -23.1%
Cc1cccc2cc(CN(Cc3ccc(F)cc3)Cc3nnnn3C3CCCC3)c(=O)[nH]c12 | -1.3% | -9.0%
O=C(/C=C/c1cccc([N+](=O)[O-])c1)NCCSCc1c(Cl)cccc1Cl | -12.4% | -10.1%
Cc1ccc(C)c(S(=O)(=O)N2CCN(C(=O)c3ccc(OCc4c(C)noc4C)cc3)CC2)c1 | -18.5% | ?
Cc1coc2c1c(C)cc1oc(=O)c(CC(=O)N[C@H](C(=O)O)C(C)C)c(C)c12 | -1.9% | -21.0%
CN1CCc2c(c3ccccc3n2C)C1 | -11.2% | -4.0%
COc1ccccc1NC(=O)CCC(=O)OCc1ccc(Br)cc1 | i | -19.3%
O=C(Nc1nnc(Cc2ccccc2)s1)c1cccs1 | / | 2.3%
COc1ccc(C2=NN(C(=O)CCC(=O)O)C(c3ccccc3F)C2)cc1 (centres undefined) | -12.3% | -7.9%
CC1CCN(C(=O)CCC(=O)N2CC(C)Oc3ccccc32)CC1 (centres undefined) | i | 5.5%
Cc1ccc(C(=O)NCCCN2CCOCC2)cc1S(=O)(=O)N1CCCCC1 | i | -17.1%
O=C1N=C(N2CCc3ccccc3C2)S/C1=C\c1cccc(O)c1 | -14.1% | -16.9%
COc1ccc(CN(C(=O)CSc2nnc(-c3ccc(OC)c(OC)c3)o2)c2ccc(F)cc2)cc1 | -27.1% | -14.0%
O=C(C1CCCC1)N1CCN(S(=O)(=O)c2ccc(F)c(F)c2F)CC1 | ? | ?
CCOC(=O)C(C(=O)OCC)C(C#N)c1ccccc1 (centres undefined) | i | -13.6%
COc1ccccc1C(=O)Nc1ccc2c(c1)OCCO2 | / | -17.4%
COc1ccc([C@H]2/C=C\CN(S(C)(=O)=O)[C@@H](C)C(=O)N2Cc2ccc(F)cc2)cc1 | -8.0% | -8.8%
COc1ccc(-c2csc3ncnc(Oc4ccc5c(C)cc(=O)oc5c4)c23)cc1 | -7.1% | -4.8%
COc1ccc(C2=NN(C(=O)CCC(=O)O)C(c3ccc(F)cc3)C2)cc1 (centres undefined) | i | -6.7%
CCOC(=O)c1cc(NC(=O)c2ccccc2)c(=O)n2c1oc1ccc(Cl)cc12 | -25.8% | -23.1%
Cc1cccc(OC(=O)c2cc(-c3ccc(Cl)cc3)on2)c1C | -1.6% | -7.9%
Cn1c(=O)c2c(ncn2CC(=O)OCC(=O)NCc2ccc(F)cc2)n(C)c1=O | i | -13.2%
CCOC(=O)CSc1ncnc2c1cnn2-c1ccc(C)cc1 | / | 4.0%
N#C/C(=C/c1ccccc1)c1nn(CCO)c(N)c1C#N | i | -2.6%
CCOC(=O)c1c(NC(=O)C(C)N2CCN(C(=O)c3ccco3)CC2)sc2c1CCCC2 (centres undefined) | ? | ?
CN(Cc1ccc(F)cc1)C(=O)c1cccc(S(=O)(=O)N2CCN(c3ccc(F)cc3)CC2)c1 | ? | -27.9%
Cn1c(N)c(C(=O)Nc2cccc(Cl)c2)c(=O)n(C)c1=O | -14.0% | -14.8%
C=C1CCN([C@@H](CC(C)C)C(=O)NCc2cc(OC)c(OC)c(OC)c2)S(=O)(=O)c2ccccc21 | -13.2% | -17.0%
COc1ccc(/C=N/NC(=S)Nc2ccccc2)cc1COc1ccc(F)cc1F | i | -18.4%
COc1ccc(-c2noc(CCCOc3ccccc3)n2)cc1OC | / | -31.5%
COc1ccc2c(c1[N+](=O)[O-])CCC/C2=N/OC(=O)c1cccc2ccccc12 | / | -10.4%
O=c1c2c(nc3c(-c4ccccc4)c[nH]n13)CCCC2 | / | -14.9%
CC(C)=CCN1CCN(Cc2cnc(C)s2)CC1CCO (centres undefined) | -4.2% | -1.4%
O=C1N=c2ccccc2=C1c1sc(=S)n(Cc2ccccc2Cl)c1O | i | 1.8%
CCCOC(=O)c1c(NC(=O)c2cc3nc(-c4ccc(OC)cc4)cc(C(F)(F)F)n3n2)sc2c1CCCC2 | -2.8% | -12.0%
CCOC(=O)C1=C(C)Nc2nc(SCC)nn2C1c1ccc(OC)cc1 (centres undefined) | -12.9% | -14.9%
COCC(C)N1CCC(Oc2ccc(C(=O)NCc3ccccn3)cc2)CC1 (centres undefined) | -1.5% | -4.8%
COc1ccc(N(C)S(=O)(=O)c2ccc(Cl)c(C(=O)NCC(C)(C)N3CCOCC3)c2)cc1 | i | -19.3%
Cc1ccccc1CNC(=O)c1ccc(Cn2c(SCc3ccccc3)nc3cccnc32)cc1 | -26.0% | -11.2%
Cc1[nH]c2ccccc2c1Cc1nnc(SCC(N)=O)o1 | 1.1% | 5.7%
O=C(N/N=C/c1c(O)n(Cc2ccccc2)c(=O)[nH]c1=O)c1ccccc1 | -16.7% | -11.7%
Clc1ccc(Cl)c2sc(N3CCOCC3)nc12 | -0.9% | -23.1%
CC(C)c1cccc(-c2ccc3c(c2)S(=O)(=O)c2cccc(C(=O)NCc4ccccc4Cl)c2C3=O)c1 | ? | 12.6µM*
COc1ccc(Cl)cc1C(=O)Nc1ccc(CN2CCCCC2)cc1 | -10.2% | -7.2%
O=C(OCC(=O)N1CCOCC1)c1ccccc1Cc1ccccc1 | -7.7% | -15.1%
O=C(CNS(=O)(=O)c1ccccc1)N/N=C/c1ccc(O)cc1 | -0.8% | -6.1%
CCOC(=O)CNC(=O)N1CCCN(S(=O)(=O)c2ccc3c(ccn3CC)c2)CC1 | -6.7% | 0.5%

Going on with the list:
SMILES | Vaccinia mCherry | VACV Venus inh
Cc1ccc(NC(=O)CSc2nc3cc(C(=O)NCC4CCCO4)ccc3c(=O)n2CC2CCCO2)cc1 (centres undefined) | 8.0% | -12.3%
CC(C)C1=NN(C(=O)c2cccnc2)C(O)(C(F)(F)F)C1 (centres undefined) | -13.7% | -3.8%
C(=Nc1ccc2ccccc2n1)c1ccccn1 | -11.3% | 2.1%
FC(F)(F)c1ccc(CN2CCNCC2)cc1 | -5.5% | 4.6%
Cc1ccc2cc([N+](=O)[O-])ccc2n1 | i[7.34 µM] | -4.0%[7.34 µM]
Cc1cccc(C)c1NC(=S)NC(=O)c1ccc(Br)o1 | -24.4% | -14.5%
COc1ccc(CN(CCCN2CCOCC2)S(=O)(=O)N(C)C)cc1OC | / | -9.9%
CCCCc1nn2c(=O)cc(COC(=O)c3cccc(NC(=O)CCc4ccccc4)c3)nc2s1 | -18.1% | -16.4%
CC(C)(C)NC(=O)C1Cc2ccccc2CN1C(=O)Nc1cccc(Cl)c1 (centres undefined) | i | -28.6%
CC1CCN(CCCNC(=O)CCNC(=O)Cn2cnc3ccccc3c2=O)CC1 | -10.9% | -6.6%
CN1C(=O)/C(=C/c2ccccc2OCc2ccc(C(=O)O)cc2)NC1=S | i | 0.2%
COC(=O)CN(c1ccc(OC)cc1OC)S(=O)(=O)c1ccccc1[N+](=O)[O-] | -5.0% | -4.1%
CCCOc1ccc(/C=C/c2[nH]c(=O)[nH]c(=O)c2[N+](=O)[O-])cc1OCC | 10.2% | -5.8%
CCCC(=O)N1CCCC1(C)C(=O)Nc1cc(OC)ccc1OC (centres undefined) | 6.7% | 6.5%
CC(=O)N1CCN(C(=O)c2ccc(Cl)c(S(=O)(=O)N3CCc4ccccc43)c2)CC1 | -18.0% | -9.1%
CC1(C)C=Cc2c(c3ccccc3[nH]c2=O)O1 | / | -6.0%
CCN1C(=C(C#N)C#N)C=Cc2cc(C)ccc21 | i | -9.1%
CCOC(=O)N1CCN(C(=O)CNC(=O)c2nn(-c3ccc(OC)cc3OC)c(=O)c3ccccc23)CC1 | -12.2% | 1.0%
O=C(Nc1ccccc1C(F)(F)F)c1ccc(F)c(S(=O)(=O)N2CCc3ccccc3C2)c1 | -10.9% | -16.0%
C=CC(=O)NCNC(=O)C=C | -3.0% | -21.7%
Cc1noc(C)c1NC(=O)Nc1ccc2c(c1)C(=O)N([C@H](C)CO)C[C@@H](C)[C@@H](CN(C)S(=O)(=O)c1cn(C)cn1)OCCCC[C@H](C)O2 | -23.4% | -4.4%
O=C(COc1ccccc1)NCCSCc1ccc(Cl)cc1 | -11.2% | -13.0%
Cc1cc(S(=O)(=O)NC2CCN(Cc3ccccc3)CC2)c(C)cc1Cl | -15.8% | ?
C[C@@H]1NC(=O)[C@H](CCCN=C(N)N)NC(=O)c2cc([N+](=O)[O-])cc(I)c2NCCC[C@@H](C(N)=O)NC1=O | i | -7.1%
CCc1cccc(CC)c1NC(=O)c1c(C)oc2ccc(O)c(CN3CCN(C)CC3)c12 | -3.3% | -9.3%
CC(C)C1Cc2c(sc3ncnc(NN)c23)CO1 (centres undefined) | i | -6.2%
O=C(O)CCC(=O)Nc1cccc(-c2nc3ccccc3o2)c1 | i | 0.4%
COc1ccc(-c2cc(=O)c3c(O)c(OC)c(OC)c(OC)c3o2)cc1 | -3.6%&11.4% | -8.2%&17.3%
COc1ccc(CNC(=O)c2ccccc2NC(=O)C2=C(C)OCCS2)cc1 | i | -4.6%
CC12CCC3C(=CCc4cc(O)ccc43)C1CC(=NO)C2O (centres undefined) | i | -7.7%
Cc1cccc(NC(=O)c2c(C)cc(C)nc2SCC(=O)c2ccccc2)c1 | i | -16.6%
CC(=O)Nc1ccc(N2C(=O)CSC2c2ccccc2[N+](=O)[O-])cc1 (centres undefined) | -13.5% | -2.5%
CCCn1nc(NS(=O)(=O)c2cccc3nonc23)c2cc3cc(C)ccc3nc21 | i | -15.0%
Cc1ccc(NC(=O)c2cc(S(=O)(=O)N3CCc4ccccc43)cn2C)cc1 | -23.3% | -16.3%
COc1cccc(C(=O)NN/C(C)=C/C(=O)C(F)(F)C(F)(F)C(F)(F)F)c1 | -24.6% | -15.2%
COC(=O)c1cccc(C23CC4(C2)[C@H](CN(Cc2ccc(-c5ccccc5)cc2)[C@@H]4c2ccccc2)C3c2ccc(C(F)(F)F)cc2)c1 (some centres undefined) | -3.6% | -6.0%
CCCC[C@@H]1CN=C(N)N1CCCC | i | -24.8%
CC(C)C(C)NC(=O)COc1nc2ccccc2nc1N(C)C1CCCCC1 (centres undefined) | i | 0.0%
COc1ccccc1C(=O)NC(=O)COC(=O)c1ncc(Cl)c(Cl)c1Cl | -10.6% | -7.3%
O=C(NCc1cccnc1)c1cc(C2CCCCN2S(=O)(=O)c2ccccc2)on1 (centres undefined) | 1.2% | -8.0%

Reformatted with values under each structure: part of the list above.
The line under a structure holds: Vaccinia mCherry, VACV Venus inh
O=C(COc1ccc(Cl)cc1)NCCNC(=O)c1cnccn1
    4.9%, -13.0%
C=C1CCN([C@@H](CC(C)C)C(=O)NCc2cc(OC)c(OC)c(OC)c2)S(=O)(=O)c2ccccc21
    -13.2%, -17.0%
COc1ccc(Cl)cc1C(=O)Nc1ccc(CN2CCCCC2)cc1
    -10.2%, -7.2%

Back to the main list, repeating the six entries before the break.
SMILES | Vaccinia mCherry | VACV Venus inh
COc1cccc(C(=O)NN/C(C)=C/C(=O)C(F)(F)C(F)(F)C(F)(F)F)c1 | -24.6% | -15.2%
COC(=O)c1cccc(C23CC4(C2)[C@H](CN(Cc2ccc(-c5ccccc5)cc2)[C@@H]4c2ccccc2)C3c2ccc(C(F)(F)F)cc2)c1 (some centres undefined) | -3.6% | -6.0%
CCCC[C@@H]1CN=C(N)N1CCCC | i | -24.8%
CC(C)C(C)NC(=O)COc1nc2ccccc2nc1N(C)C1CCCCC1 (centres undefined) | i | 0.0%
COc1ccccc1C(=O)NC(=O)COC(=O)c1ncc(Cl)c(Cl)c1Cl | -10.6% | -7.3%
O=C(NCc1cccnc1)c1cc(C2CCCCN2S(=O)(=O)c2ccccc2)on1 (centres undefined) | 1.2% | -8.0%
Cc1ccc2cc3c(=O)n(C)cc(C=O)c3nc2c1 | 0.6% | -9.3%
Cc1ccccc1NC(=O)c1c2c(nc3ccccc13)C(=O)N(C1CCCCC1)C2 | -17.8% | -10.6%
CCCN(CCC)C(=S)Nc1cc(C(=O)OC)ccc1C(=O)OC | -25.5% | -16.3%
CC(C)c1ccc(Nc2ncc3c(n2)CCN(C(=O)Nc2ccc(F)c(Cl)c2)C3)cc1 | -29.4% | ?
COC(=O)/C(=N/Nc1ccccc1C)N1CCCc2ccccc21 | -9.0% | -24.3%
O=C(CSc1nc(=O)n(CCN2CCOCC2)c2c1CCCC2)Nc1ccccc1Cl | i | -1.0%
CCc1cc2c(cc3c(=O)n(CCCC(=O)NCc4cccc(Br)c4)ncn32)s1 | ? | ?
CSCCC(=O)Nc1ccc(C(C)=O)cc1 | -13.0% | 8.9%
[N-]=C=C1C(=O)NC(=O)C([n+]2ccc(-c3ccncc3)cc2)C1c1ccccc1C(F)(F)F (centres undefined) | i[7.34 µM] | 2.1%[7.34 µM]
S=C(NC1CCCCC1)N1CCn2cccc2C1c1ccncc1 (centres undefined) | i | -2.3%
COc1ccc(S(=O)(=O)N2CCC(N3CCCCC3)CC2)cc1 | ? | -0.6%
Cc1cc(C)cc(NC(=O)C2CCN(c3nc4ccccc4nc3C(F)(F)F)CC2)c1 | -2.4% | -0.1%
O=C(CCN1C(=O)/C(=C\c2cccs2)SC1=S)Nc1ccccn1 | 7.3% | 21.9%
CCC1CN(CCNC(=O)c2cccc3nccnc23)Cc2cc(OC)ccc2O1 (centres undefined) | -8.4% | 0.8%

High-throughput results as filed in PubChem.
